High-throughput results deposited in PubChem by National Center for Advancing Translational Sciences (NCATS).
BCR signal inh: blocks chronic active B-cell receptor signaling. ABC-DLBCL IkBa-CBG/CBR reporter, luminescence ratio, 4 h. Potency, µM (titrated, usually from 46.1 µM), for inactives: top-dose ratio change, negative = lower green/red ratio, actives largely listed as inhibitors. hit rate 0.05% among 340,000. AID 493014; active = well fitted inhibition curve with a large enough effect in the signal ratio, with a control signal flat, not every such curve was filed as active; inconclusive = small, poorly fitted or top-dose-only effect, or effect the other way, or a change in a side signal; the % refers to the signal ratio;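 note: potency is the fitted concentration of half-maximal effect; plate controls were basal doxycycline-induced cells for no effect and cells given 10 µM MG132 for full effect; MG132 reads +100%, hits lower the ratio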
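Concentration-response series (up to 46 uM) were applied to TMD8 dual-reporter cells for 4 h at 37C with doxycycline. Green/red ratio, after filter-overlap correction, defined %Activity; red signal alone was normalised to basal cells and zero luminescence.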
Menin MLL FP TR: displaces Texas Red mutant MLL peptide from human menin | O00255 | Menin + Texas Red MLL mutant peptide, fluorescence polarization | Potency, µM (doses to about 61.6 µM), inactives show top-dose FP activity change, negative = inhibition, actives largely listed as inhibitors | hit rate 0.23% among 270,000 | AID 1768; active = well fitted inhibition curve with a large enough effect in the polarisation, with a control signal flat, not every such curve was filed as active; inconclusive = small, poorly fitted or top-dose-only effect, or effect the other way, or a change in a side signal; inactive = no such curve, though single readings can be large or run the other way; the % refers to the polarisation; note: potency is the fitted concentration of half-maximal effect; % of control where 0% means no effect; many of its hits are not listed in these tables
TSHR antagonist: blocks TSH signaling through the human TSH receptor; P16473; TSHR-expressing cells, TSH-stimulated cAMP HTRF, 2 h; stronger effect = lower value; activity change, negative = inhibition, % at 11.5 µM; hit rate 0.2% among 330,000; AID 504810;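 active = activity change below a set negative limit, meaning inhibition stronger than a set level, cut at about -70% in these data; inconclusive = activity change between two set negative limits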; note: % is set by controls: 0 for no effect and ±100 for the full control effect
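Competitive HTRF cAMP read-out (cryptate anti-cAMP antibody, cAMP-d2; 30 min, room temperature) in freshly harvested TSHR cells. Compounds added before TSH at EC80 (4nM final), followed by 2 hours' incubation at 37 deg C.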
GALK inhibitor: galactokinase (human) inhibition. P51570. Potency, µM (series often up to 57.5 µM), inactives show top-dose activity change, negative = inhibition, actives largely listed as inhibitors. Purified GALK, Kinase-Glo residual ATP luminescence. hit rate 0.007% among 270,000; note: potency is the fitted concentration of half-maximal effect; % is set by controls: 0 for no effect and ±100 for the full control effect
Target sequence (P51570 whole entry, looked up): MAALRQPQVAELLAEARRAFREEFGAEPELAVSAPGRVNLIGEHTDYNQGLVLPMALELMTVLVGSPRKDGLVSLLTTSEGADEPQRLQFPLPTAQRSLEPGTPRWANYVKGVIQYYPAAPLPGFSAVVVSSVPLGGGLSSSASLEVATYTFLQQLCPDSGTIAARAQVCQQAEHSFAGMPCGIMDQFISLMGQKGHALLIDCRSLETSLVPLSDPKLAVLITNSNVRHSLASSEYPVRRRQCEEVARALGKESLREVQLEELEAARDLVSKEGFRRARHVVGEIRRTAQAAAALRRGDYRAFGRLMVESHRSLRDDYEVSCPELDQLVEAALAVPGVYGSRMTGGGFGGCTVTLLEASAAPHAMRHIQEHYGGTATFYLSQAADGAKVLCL
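Human GALK (5 nM) with 35 uM ATP and 100 uM galactose in 20 mM HEPES pH 8.0, 5 mM MgCl2, 60 mM NaCl, 1 mM DTT, 0.01% BSA. After 1 h at room temperature, leftover ATP was read by Kinase-Glo Plus luminescence.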
MBNL1 CUG block: blocks human MBNL1 binding to CUG repeat RNA | Q9NR56 | TR-FRET MBNL1-His/biotin-(CUG)12 binding, 665/545 ratio | Potency, µM (doses to about 57.5 µM), without a hit: at the top dose activity change, negative = inhibition, most hits filed as inhibitors | hit rate 0.036% among 280,000; active = well fitted inhibition curve with a large enough effect in the signal ratio, with a control signal flat, not every such curve was filed as active; inconclusive = small, poorly fitted or top-dose-only effect, or effect the other way, or a change in a side signal; inactive = no such curve, though single readings can be large or run the other way; the % refers to the signal ratio; note: potency is the fitted concentration of half-maximal effect; % is set by controls: 0 for no effect and ±100 for the full control effect
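MBNL1-His + Biotin-(CUG)12, cpd titration 92 nM–58 uM; Tb anti-His Ab 0.055 ng/ul, SA-XL665 5 nM (final); 60 min RT; ratiometric 665/545 nm, Ex 340 nm; normalized to buffer and full-complex controls.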
USP2a block: blocks human ubiquitin-specific protease USP2a; O75604; USP2 core, Ub-CHOP2 coupled fluorogenic reporter, 485/531; Potency, µM (titrated, usually from 38.3 µM), inactives show at the highest dose activity change, negative = inhibition, most hits filed as inhibitors; hit rate 0.01% among 330,000; AID 463254;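 note: potency is the fitted concentration of half-maximal effect; plate controls were DMSO wells for no effect and full inhibition by NEM control for full effect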
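Cell-free coupled assay: 10nM USP2 core preincubated 30min RT with compound in Tris-HCl pH 8.0/CaCl2/CHAPS buffer, then 25nM Ub-CHOP2 and 25nM reporter substrate; fluorescence (Ex 485/Em 531) read after 60min RT, normalized to NEM inhibition, concentration-response curves fitted.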
Eya2 phos inh: blocks the phosphatase activity of human Eya2; O00167; recombinant Eya2, OMFP fluorescence dephosphorylation (OMFP is methylfluorescein phosphate); Potency, µM (series often up to 76.9 µM), inactives show top-dose activity, negative = inhibition, hits mostly inhibitors; hit rate 0.006% among 330,000; AID 488837; note: potency is the fitted concentration of half-maximal effect; % is set by controls: 0 for no effect and ±100 for the full control effect
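Eya2 (0.2 uM) preincubated 10 min at ambient with compound, then OMFP substrate added at 50 uM; 10 min reaction in 50 mM HEPES pH 7.5, 50 mM NaCl, 5 uM MgCl2, 0.05% BSA, 1 mM DTT. Fluorescence read at Ex 485/Em 525 nm.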
S-ASM inh: blocks human secretory acid sphingomyelinase; P17405; placental ASM, HMU-PC fluorogenic substrate, 60 min; Potency, µM (highest dose often 57.5 µM), without a hit: at the highest dose activity change, negative = inhibition, actives largely listed as inhibitors; hit rate 0.006% among 340,000; AID 504937; note: potency is the fitted concentration of half-maximal effect
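Human placenta-derived ASM preincubated with compound 10 min at room temperature, then reacted with 9 uM (final) fluorogenic HMU-PC substrate for 60 min at 37 C. Stop solution raises pH to 10; fluorescence read at Ex 386/Em 447 nm.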
Mito fusion act: blocks mitochondrial division or promotes mitochondrial fusion; hit rate 0.23% among 320,000; Potency, µM (highest dose often 46.1 µM), for inactives: at the highest dose growth rescue (activation), most hits filed as activators; S. cerevisiae fusion-defective mutant growth rescue, CellTiterGlo 48 h;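 note: potency is the fitted concentration of half-maximal effect; % of control where 0% means no effect; nearly all actives have a fitted effect of over 45% in size; temperature-sensitive fusion mutants such as fzo1-1 at 37 °C on non-fermentable ethanol glycerol medium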
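Read-out: ATP-based luminescence (CellTiterGlo, 10 min ambient) reporting growth of fusion-defective ts yeast after 48 hours at 37C on glycerol/ethanol YPEG medium in the presence of compound.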
PKM2 act: increases activity of human pyruvate kinase M2; P14618; purified PKM2, Kinase-Glo ATP luminescence, activation; response scale: 0% is enzyme alone, no compound; Potency, µM (series often up to 57.5 µM), without a hit: at the top dose activation, hits mostly activators; hit rate 0.34% among 260,000; note: potency is the fitted concentration of half-maximal effect; % is set by controls: 0 for no effect and ±100 for the full control effect; nearly all actives have a fitted effect of over 55% in size
Target sequence (P14618 whole entry, looked up): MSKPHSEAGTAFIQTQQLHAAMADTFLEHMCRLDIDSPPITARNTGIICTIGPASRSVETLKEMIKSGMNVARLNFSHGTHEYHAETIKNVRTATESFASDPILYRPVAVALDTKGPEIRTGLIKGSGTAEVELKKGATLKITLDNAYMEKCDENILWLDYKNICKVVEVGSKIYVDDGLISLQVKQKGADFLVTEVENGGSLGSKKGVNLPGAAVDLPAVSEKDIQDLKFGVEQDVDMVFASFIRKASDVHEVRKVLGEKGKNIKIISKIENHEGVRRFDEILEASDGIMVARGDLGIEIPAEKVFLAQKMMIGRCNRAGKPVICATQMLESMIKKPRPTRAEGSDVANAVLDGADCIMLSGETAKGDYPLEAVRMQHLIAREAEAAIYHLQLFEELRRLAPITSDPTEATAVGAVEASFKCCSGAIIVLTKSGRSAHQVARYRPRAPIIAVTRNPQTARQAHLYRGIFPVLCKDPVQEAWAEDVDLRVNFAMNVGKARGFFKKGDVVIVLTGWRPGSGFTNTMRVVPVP
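Purified hPK-M2 (>95% pure) converted ADP (0.1 mM final) to ATP with 0.5 mM PEP in 50 mM imidazole pH7.2, KCl, MgCl2, Tween 20, BSA; 1 h at room temperature. ATP detected by Kinase-Glo luminescence.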
Starred values were filed as active, the others as inactive; ? = inconclusive; . = no result given; & = joins results of further samples; [ ] = dose if it differs, or a comment. Unless noted, calls come from the whole dose curve; as a rule, active = well fitted curve in the direction sought with a large enough effect; inconclusive = small, poorly fitted or top-dose-only effect, or another doubt; inactive = no such curve, though single readings can be large; an effect the other way counts as inactive or inconclusive.

no.	smiles	Menin MLL FP TR	S-ASM inh	TSHR antagonist	GALK inhibitor	Mito fusion act	Eya2 phos inh	PKM2 act	BCR signal inh	MBNL1 CUG block	USP2a block
1	N#CCCn1c(SCC(=O)NCCc2ccc(F)cc2)nc2ccccc21	5%	-2%	0	3%	-6%	5%	-3%	-1%	12%	-20%
2	Nc1nonc1-n1nnc(C(=O)N/N=C/c2ccc(OCc3ccc(F)cc3)cc2)c1COc1ccccc1	.	6%	-2	-1%	9%	7%	1%	?	-2%	1%
3	CO/N=C(\C(=O)N[C@@H]1C(=O)N2C(C(=O)O)=C(COC(C)=O)CS[C@H]12)c1csc(N)n1	-9%	.	-6	.	0%	-4%	.	.	.	.
4	CC(Sc1nc2ccccc2s1)C(=O)N1CCOCC1 (configuration not stated)	-1%	-1%	0	2%	0%	5%	2%	1%	8%	2%
5	O=c1[nH]c(=O)n(C2C[C@H](O)[C@@H](CO)O2)cc1C(F)(F)F (some centres not stated)	0%	-2%	3	.	1%	6%	.	?	.	3%
6	CN1CCN(CCCN2c3ccccc3Sc3ccc(Cl)cc32)CC1	?	-8%&-5%	-5&5&1&7	-1%&2%	-84%&-30%&-18%&2%[inhibitor]	-3%&-2%&-21%&-3%	6%&-1%	?	11%&-12%	0%&-1%&0%
7	CNCC[C@@H](Oc1ccccc1C)c1ccccc1	-7%[24.8 µM]	-2%	.	.	.	.	.	.	.	.
8	CCC(=O)OCC(=O)C1(OC(=O)CC)C(C)CC2C3C(Cl)CC4=CC(=O)C=C[C@@]4(C)C3C(O)C[C@@]21C (some centres not stated)	2%	.	.	.	.	.	.	.	.	.
9	Cc1c(NS(=O)(=O)c2ccccc2)cc(Cl)c(O)c1C	30%[activator]	-1%	1	-2%	-17%	1%	2%	?	6%	-1%
10	C[C@]12CCC(=O)C=C1CC[C@@H]1C2[C@@H](O)C[C@@]2(C)[C@H]1CC[C@]2(O)C(=O)CO (some centres not stated)	4%[24.8 µM]	.	.	.	.	.	.	.	.	.
11	C/C(=N/OC(=O)c1ccccc1)c1oc(C)nc1C	.	-2%	0	5%	-1%	6%	5%	5%	8%	2%
12	COc1ccccc1N=CC=C1OC(C)(C)C(C)(C)O1	-14%	209%[activator]	-4	6%	3%	-1%	5%	?	-2%	0%
13	CC(=O)Nc1nc(CCN2C(=O)c3ccccc3C2=O)cs1	1%	0%	16	0%	1%	-7%	1%	?	12%	2%
14	CCN(c1ccccc1)S(=O)(=O)c1ccc(C(=O)NCC(c2cccs2)N(C)C)cc1 (configuration not stated)	-16%	4%	-3	0%	-1%	12%	-1%	0%	-4%	-1%
15	CCN(CC)C(=S)SSC(=S)N(CC)CC	-18%	0%	-21&-6	6%	-68%&-4%[inhibitor]	8%&-5%	-22%	?	81%[activator]	9%
16	CNNCc1ccc(C(=O)NC(C)C)cc1	1%[24.8 µM]	-3%	.	.	.	.	.	.	.	.
17	O=C(NCc1ccccc1Cl)c1ccccc1Oc1ccccc1	-24%	-1%	-5	2%	?	-1%	-1%	?	3%	4%
18	Cc1ccc(NC(=O)C2CCC2)cc1S(=O)(=O)N1CCCCCC1	.	-1%	-19	.	1%	2%	.	0%	.	0%
19	COc1ccccc1NS(=O)(=O)c1cc(C(=O)N2CC(C)CC(C)C2)ccc1C (configuration not stated)	-21%	-1%	-10	0%	-5%	-11%	4%	-2%	-1%	3%
20	CCCCn1c(N)c(N(Cc2ccccc2OC)C(=O)CN2C(=O)NC3(CCCC3)C2=O)c(=O)[nH]c1=O	.	55%[activator]	6	.	-6%	6%	.	-6%	.	1%
21	CC(=O)[C@H]1CCC2C3CC=C4C[C@@H](O)CC[C@]4(C)C3CC[C@@]21C (some centres not stated)	.	-1%	-12	.	.	-9%	.	?	.	-1%
22	COC(=O)c1ccc(N=C2S/C(=C\c3cc(C)n(-c4cccnc4)c3C)C(=O)N2C)cc1	1%	14%	-10	-1%	2%	10%	0%	0%	-4%	3%
23	C[C@@]12C=CC(=O)C=C1CC[C@H]1[C@H]3CC[C@](O)(C(=O)CO)[C@]3(C)CC(=O)[C@@H]12	-12%[24.8 µM]	.	.	.	.	.	.	.	.	.
24	CCCCC[C@H](O)/C=C/[C@@H]1[C@@H](C/C=C\CCCC(=O)O)[C@@H](O)C[C@@H]1O	4%	.	.	.	.	.	.	.	.	.
25	Nc1c(Br)cc(Br)cc1CNC1CCC(O)CC1 (configuration not stated)	-2%	0%&6%	2&-5	.	2%&2%	-3%&-2%	-5%&-2%	?	-11%	-2%&-5%
26	CC1C/C(=N/O)C(C)CN1 (configuration not stated)	0%	0%	-1	-1%	-1%	-21%	1%	?	-11%	1%
27	CCC(C)C(=O)O[C@H]1C[C@@H](C)C=C2C=C[C@H](C)[C@H](CC[C@@H]3C[C@@H](O)CC(=O)O3)C21 (some centres not stated)	0%[24.8 µM]	.	.	.	.	.	.	.	.	.
28	Nc1ncnc2c1ncn2[C@@H]1O[C@H](CO)[C@H](O)[C@H]1O	-1%	.	.	.	.	.	.	.	.	.
29	CCCc1nc(C)c2c(=O)[nH]c(-c3cc(S(=O)(=O)N4CCN(CC)CC4)ccc3OCC)nn12	15%	3%	.	.	.	.	.	.	.	.
30	CC(=O)Oc1cc(C(C)C)c(OCCN(C)C)cc1C	-18%	2%	-15&-13	1%	13%&2%	-4%&-4%	8%	1%	-29%	4%
31	Cc1ccc(C(=O)CCC(=O)Nc2cccc(C(F)(F)F)c2)cc1	-3%	-2%	-9	-5%	1%	13%	-1%	11%	3%	1%
32	CC(=O)O[C@H]1C(=O)[C@@]2(C)C([C@H](OC(=O)c3ccccc3)[C@]3(O)C[C@H](OC(=O)[C@H](O)[C@@H](NC(=O)c4ccccc4)c4ccccc4)C(C)=C1C3(C)C)[C@]1(OC(C)=O)CO[C@@H]1C[C@@H]2O (some centres not stated)	?	.	-9	.	18%	1%	.	.	.	.
33	O=C(Nc1nc2ccccc2n1CCN1CCOCC1)c1ccc(Cn2cc([N+](=O)[O-])cn2)o1	-6%	-1%	-6	4%	1%	-9%	-1%	-3%	16%	-2%
34	CC/C(=N\n1nnnc1Nc1ccccc1)c1ccccc1	-10%	0%	-20	-2%	?	-24%	0%	10%	-6%	1%
35	NCCCC(N)(C(=O)O)C(F)F (configuration not stated)	-1%&3%	10%	-2&5	0%	-34%&-4%[inhibitor]	3%&6%	-9%	1%	36%[activator]	2%
36	COc1ccccc1NS(=O)(=O)c1cc(NC(=O)CCNC(C)=O)ccc1C	-21%	-1%	4	1%	1%	-1%	6%	-1%	-4%	4%
37	C#C[C@]1(O)CCC2C3CCC4=CC(=O)CC[C@@H]4C3CC[C@@]21C (some centres not stated)	-6%	-1%	-6	.	2%	3%	6%	?	-7%	2%
38	CC(=O)SC1CC2=CC(=O)CC[C@@]2(C)C2CC[C@@]3(C)[C@@H](CC[C@@]34CCC(=O)O4)C12 (some centres not stated)	-26%	.	.	.	.	.	.	.	.	.
39	O=C(NCC1CCCCN1)c1cc(OCC(F)(F)F)ccc1OCC(F)(F)F (configuration not stated)	-9%&-6%&16%	2%	-3	-3%	-3%	0%	1%	?	1%	2%
40	Fc1ccc([C@H]2CCNCC2COc2ccc3c(c2)OCO3)cc1 (some centres not stated)	-9%	.	.	.	.	.	.	.	.	.

An excerpt. The share of hits here may be higher or lower than overall.
